Bioassay records as filed in PubChem.
AID504770: growth inhibition of E. coli YBA685, primary screen, V. cholerae RctB inhibitors | z-score (concentration not given with the values) | E. coli YBA685 rctB-dependent plasmid, OD600 growth, 3 h; stronger effect = lower value | 130,000 tested, 0.27% active;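 active means z-score under -2 on both plates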;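 further: wells of about 30 µL received 100 nL stock; score is relative to mean and SD of the test wells; the first replicate is given; strong numbers were not always called active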
Ba CapD inh: Bacillus anthracis CapD inhibitors, primary screen, biochemical, fluorescence intensity. CapD gamma-glutamyltranspeptidase (Bacillus anthracis Ames Ancestor). purified CapD enzyme, fluorescence intensity read-out; stronger effect = lower value; some hits fall short of the stated cut. z-score (test concentration not listed). 140,000 tested, 0.23% active;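 active means z-score under -4 in either of two replicates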;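 further: stock transfer was 100 nL into about 40 µL; score is relative to mean and spread of the plate; one replicate is shown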
Active calls of the source: *; . = no result given; & = joins results of further samples.

SMILES	AID504770	Ba CapD inh
Cc1cccc(NC(=O)C2Sc3nnc(-c4ccccc4)n3NC2c2ccccc2)c1 (stereo not given)	0.05	0.095
O=C(COc1ccccc1F)Nc1ccc(I)cc1	-0.2	-0.025
COC(=O)c1ccc2c(=O)[nH]c(COC(=O)c3oc4ccccc4c3C)nc2c1	0.25	.
Cc1cc(NC(=O)c2sc(Nc3cccc(C(F)(F)F)c3)nc2N)no1	0.55	-0.29
O=C(CSc1nc(O)cc(=O)n1C1CCCC1)NC12CC3CC(CC(C3)C1)C2	-0.75	.
c1ccc(-c2ccc(-c3cnc4n3CCCCC4)cc2)cc1	.	15
CCCOC(=O)Cn1cnc2sc(C)c(C)c2c1=O	-0.6	0.75
CCOC(=O)c1cnn(-c2nnc(-c3ccccc3)c3ccccc23)c1/N=C/N(C)C	1.3	.
COc1ccc(-c2cc(C(=O)Nc3ccc(F)cc3)c(C(F)(F)F)o2)cc1	0.85	0.69
C=CCC(N)(CC=C)c1ccncc1	0.25	.
CCOC(=O)c1ccc(NC(=O)CNC(=O)C2CCCCC2)cc1	-0.05	-0.11
C=CCSc1nc2ccccc2[nH]1	-1.9	-0.21&-0.33
Cc1ccc2cc3cc(C(=O)NCCCN4CC(C)CC(C)C4)oc3nc2c1 (stereo not given)	-0.75	75
c1cc2c(cc1CNC1CCCC1)OCO2	-0.05	.
O=c1[nH]c(=S)[nH]c(O)c1C=NC12CC3CC(CC(C3)C1)C2	-0.85	-0.86
O=C(Nc1ccccc1I)C1(S(=O)(=O)c2ccccc2)CCCC1	-0.3	-0.085
O=C(NC1CC1)c1cccc(NC(C(=O)N2CCOCC2)c2ccccc2)c1 (stereo not given)	-0.3	.
CN(Cc1cccs1)C(=O)[C@H](Cc1ccccc1)NC(=O)c1ccco1	-0.15	.
O=C(N/N=C/c1cccc(Cl)c1)c1c(O)c2cccc3c2n(c1=O)CCC3	.	0.27
N#Cc1cnc(SCC(=O)NC(=O)Nc2ccccc2)nc1N	-0.45	0.96
COc1ccc(N(C)C(=O)Cc2c(C(=O)O)n(C)c3ccccc23)c(OC)c1	-0.9	1.1
CSc1nc(-n2nc(C)cc2C)nc(-c2ccco2)c1C#N	0.9	-0.3
COc1cc2c(cc1OC)C1(CCCC1)CN(C(=O)c1cc(Br)ccc1OC)C2	0.35	27
CC(=O)Oc1cc(C(C)C)c(OCCN(C)C)cc1C	.	-0.37
C=CCN=C1S/C(=C\N(C)C)C(=O)N1S(=O)(=O)c1ccc(C)cc1	-1.7	.
O=C1CC(c2nc(-c3ccccc3)no2)CN1c1ccccc1 (stereo not given)	1.9	-0.35
Cn1c(COc2ccccc2)nnc1SCC(=O)N1CCc2ccccc21	-0.75	0.025
CCOC(=O)c1nc(C)sc1-c1ccnn1C(=O)c1cccc(Cl)c1	-0.05	0.51
COc1ccc(NC(=O)Cn2ccn(Cc3ccccc3)c(=O)c2=O)cc1	-0.65	5.1
O=C(CSc1ccccn1)N(C1=CCCCC1)C1CC1	-0.35	.
CC(C)C(OC(=O)c1ccc(Cl)nc1)C(=O)NC1CCCCC1 (stereo not given)	0.1	.
Cc1cccc(C)c1NC(=S)NCCC(=O)O	-0.95	0.78
C=CCNC(=O)c1cc2sccc2nc1C(F)(F)F	.	-0.56
CC(C)(C)c1ccc2c(c1)c1c3n2CCN(CCC#N)C3CCC1 (stereo not given)	-1.1	0.1
NC(=O)c1ccc(NC(=O)COC(=O)Cc2cn3ccsc3n2)cc1	0.3	.
COc1ccc(NC(C)C(=O)NC2CCCCC2C)cc1 (stereo not given)	-0.05	.
CCn1c(=S)sc2nc(C)sc21	-0.4	.
CC(C)(C)NC(=NCC1CC1)NN	.	0.08
C/C(=C\c1ccccc1)C(=O)N/N=C/c1c[nH]c2cnc(OCc3ccccc3)cc12	.	-2.8
CC(C)(C)C1CCc2c(sc3nc(-c4ccccc4)oc(=O)c23)C1 (stereo not given)	.	-0.19
COc1ccc(NC(=O)c2nn3c(c2Br)NC(c2cccs2)CC3C(F)(F)F)cc1OC (stereo not given)	.	0.3
CC(=O)N(Cc1nc2ccccc2c2nc3ccccc3n12)c1ccccc1Br	.	1.9
CC1=CC(C)(C)N(C(=O)NC2CCCCC2)c2ccccc21	0.6	0.78
CC(SCC(=O)N1CCN(c2ccccc2)CC1)C(=O)O (stereo not given)	1.5	.
O=C1NC2(CCCc3ccccc32)C(=O)N1CN1CCc2ccccc2C1 (stereo not given)	-0.05	.
Cn1nc(C(=O)NCCN2CCOCC2)c2ccccc2c1=O	-0.75	-0.39
C[C@]12CC[C@@H]3c4ccc(O)cc4CC[C@H]3[C@@H]1CCC2=O	.	-0.26
CCOC(=O)c1sc2sc(C(=O)OCC)c(C(C)(C)C)c2c1N	-0.55	-0.15
CN(C)CC1Cc2ccccc2O1 (stereo not given)	-1.4	-0.57
CCOC(=O)Cn1ncc(-c2ccccc2)c1N	2.8	.
CCCN(CCC)S(=O)(=O)c1ccc(C(=O)NNC(=O)OCCC(C)c2ccccc2)cc1 (stereo not given)	.	0.15
COc1ccc2ccccc2c1S(=O)N1CCN(c2ccccn2)CC1 (stereo not given)	.	-0.1
O=C1NC(=O)/C(=C/C(=O)N2CCCCC2)S1	0.85	.
CSc1nsc(SC)c1NC(=O)N1CCCCC1	-1.4	-0.2
N#CC1(C#N)[C@H](c2ccccc2Cl)[C@@H](C(=O)c2ccccc2)N2c3ccc(F)cc3C=C[C@@H]21	.	6.3
CN1C(=O)C2(c3ccccc31)N(c1cccc(Cl)c1)C(=O)CS2(=O)=O (stereo not given)	0.1	-1.2
CC(C)Nc1nc(NC(C)C)nc(C(N)=O)n1	1.2	.
Cc1cc(C(=O)OCCOc2ccc(Br)cc2)c(C)o1	-0.1	.
Cc1ccc2nc3c(nc2c1)-c1ccccc1C3=O	.	-0.045
CC(C)C1(C)N=C(c2ccc3c(c2)OCO3)CC(c2ccccc2O)N1 (stereo not given)	-0.1	0.21
(further entries)
SMILES	AID504770	Ba CapD inh
COc1ccc(-c2ccc3ccccc3n2)cc1OC	2.1	62
COc1cc(/C=c2\sc3nc4ccccc4n3c2=O)ccc1OCc1ccc(F)cc1	.	0.2
C=CCn1c(CNC=O)nc2ccccc21	-0.6	0.025
COC(=O)C(Cc1ccccc1)n1c(C)ccc1C (stereo not given)	1.5	.
O=C(COC(=O)C1CCCCC1)NCc1ccc(Cl)cc1	0.05	-0.53
CC1=C(C(=O)OCCSc2ccccc2)C(c2cc3c(cc2Br)OCO3)NC(=O)N1 (stereo not given)	.	-0.27
Cn1c(=O)[nH]c(=O)c2c1ncn2Cc1ccccc1F	-0.9	-0.4
CC(=O)N=c1sccn1CC(O)c1ccc(Br)cc1 (stereo not given)	0.35	.
N=C1S/C(=C\c2cn[nH]c2-c2ccc(Cl)cc2)C(=O)N1c1nonc1N	.	-0.98
CCCCN(CC)C(=O)Cn1ncc2c(C)n(Cc3ccc(F)cc3)c(C)c2c1=O	-0.15	0.77
O=C(NCc1ccc2c(c1)CCO2)OCc1nc(-c2ccc(Cl)cc2)cs1	.	-0.19
Cc1nc2ccccc2cc1C(=O)NCc1cccnc1	-0.25	-0.065
CNC(=O)c1ccccc1S(=O)c1ccccc1 (stereo not given)	1.6	0.33
COc1ccc(C2CC(=O)C3=C(C2)Nc2ccccc2NC3c2cc(OC)c(OC)cc2OC)cc1 (stereo not given)	.	-1.9
CC1Cn2c(nnc2-c2cccs2)S1 (stereo not given)	-0.75	0.43
CC1CCN(C(=O)COc2ccccc2Cl)CC1	-0.75	.
O=C(Cn1cnc2c(nnn2Cc2ccc(F)cc2)c1=O)NCC1CCCO1 (stereo not given)	-1.1	-0.035
Cc1ccc(NC(=S)NCC2COc3ccccc3O2)cc1 (stereo not given)	1.1	1.2
COC(=O)CCC(=O)c1ccc(Cc2ccc(C(=O)CCC(=O)OC)s2)s1	-0.4	-1.1
Cc1cc(OC(=O)c2nn(-c3ccccc3)nc2C)n(-c2cccc(Cl)c2)n1	.	0.45
CCOC(=O)N1CCN(c2nc3ccccc3nc2Nc2sc3c(c2C#N)CCCC3)CC1	1.3	.
O=C(OCc1ccccc1)C1=COCCO1	-0.1	-0.12
CCc1ccc(C(=O)CCC(=O)O)cc1	.	-0.15
COC(=O)/C=C1\SC(=Nc2ccc(Cl)c(Cl)c2)NC1=O	1.4	-0.055
O=c1[nH]c(=S)n(-c2cccc(Cl)c2)c2c1CN(C1CCCC1)CN2	-0.35	0.3
O=[N+]([O-])c1ccccc1-c1ncc2ccccn12	.	-1.2
CCCC1=NN(c2nc3ccccc3s2)C(=O)/C1=C(/C)N1CCOCC1	.	-0.52
CCCC12CN3CC(CCC)(CN(C1)C(=O)c1ccccc1C3=O)C2=O	-0.45	0.43
O=C(COc1ccc(-c2nnco2)cc1)Nc1ccccc1Sc1ccccc1	-0.45	.
O=C(CC(=O)c1ccccc1O)c1ccc(Cl)cc1	0.25	-0.8
O=C1CNc2ccc(C(=O)NCCC3=CCCCC3)cc2N1	-0.3	16
C[N+]1(CC2COC(c3ccco3)O2)CCCCC1 (stereo not given)	-0.65	0.19
N#Cc1cc(C(=O)O)c(N)[nH]c1=O	0.05	.
O=C(/C=C/c1ccc(F)cc1Cl)NNC(=O)OCCc1ccc(Br)cc1	.	8.1
CCC(c1nnnn1CC1CCCO1)N(Cc1ccc2c(c1)OCO2)Cc1cc2cc(C)cc(C)c2[nH]c1=O (stereo not given)	0.15	.
Cn1c(=O)c([N+](=O)[O-])c(NCC2CCCO2)c2ccccc21 (stereo not given)	.	0.015
CC(=O)c1cc2cnccc2[nH]c1=O	.	0.03
COc1ccc2c(c1)C(c1ccc(N3CCOCC3)cc1)=NNC(c1cccnc1)=N2	-1.5	.
CC1CCCC(C)N1c1nn(C)c(=O)[nH]1 (stereo not given)	0.25	0.44
COC(=O)NC12CCCC(CCC1)C2	-0.2	-0.28
CC(=O)N1N=C(c2c(-c3ccccc3)c3cc(Cl)ccc3[nH]c2=O)CC1c1ccc(Br)cc1 (stereo not given)	.	1
Cn1c(CCCNC=O)nc2ccccc21	-0.25	-0.08
COc1ccc(-c2coc3c(C)c4oc(=O)c5c(c4cc23)CCCC5)cc1F	1.9	-1.4
CN(CCN1CCOCC1)C1CCN(C(=O)CNC(=O)/C=C/c2cccc(C(F)(F)F)c2)CC1	-0.25	-0.35
O=C(c1cccc2ccccc12)c1nc2c(n1O)CCCC2	-0.7	-3.5
COc1ccc(C(C#N)OC(C)=O)c(OCc2ccccc2)c1OC (stereo not given)	-0.2	0.27
COc1cccc(OCC(=O)NCC(C)C)c1	0.4	0.12
Cc1ccccc1CN1CCC(CN)CC1	-0.25	0.16
CCn1c(=O)cc(SCC(=O)NCCCN2CCCC2)c2ccccc21	0.1	0.64
COc1ccc(C2=NN(C(=O)CCC(=O)O)C(Cc3cc4cccc(C)c4nc3Cl)C2)cc1 (stereo not given)	.	0.54
CCCSc1nc2ccccc2n1CC(=O)N1CCN(Cc2ccccc2)CC1	-0.3	.
CCCCCCCOC(=O)c1ccc(-c2ccc(-c3ccc(C(=O)OCCCCCCC)cc3)cc2)cc1	.	-0.12
CCOC(=O)c1cnc(SC)nc1Sc1ccc(Br)cc1	.	0.59
CCOC(=O)c1sc2ncn(CC(=O)Nc3ccc(C)cc3)c(=O)c2c1C	.	2.9
N#CCSc1nc2cc(C(=O)NC3CCCCC3)ccc2c(=O)n1Cc1ccccc1	-0.4	0.8
COc1cc(OC)cc(-n2c(=O)c3ccccc3n(Cc3cc(=O)n4ccccc4n3)c2=O)c1	0.8	0.075
CC1=C(C(=O)OCc2ccccc2)C(c2ccc3c(c2)OCO3)C2=C(CC(c3ccccc3)CC2=O)N1 (stereo not given)	.	4.9
COCCOc1cc(-n2nnnc2-c2cccc(OC)c2)c(Cl)cc1Cl	.	-0.13
O=C(c1ccc2ncccc2c1)N1CCN(c2ccccc2)CC1	-0.3	-0.25
CCCC1C(c2ccccc2)C2(C#N)C(=O)NC1(O)CC2(C#N)C#N (stereo not given)	0.05	0.32
Cc1ccc(C2=NN(C(=O)COC(=O)Cn3nc(-c4ccccc4)oc3=O)C(c3ccco3)C2)cc1 (stereo not given)	0.65	.
C=CCn1c(=N)c(C(=O)OC)cc2c(=O)n3cccc(C)c3nc21	-0.15	-0.09

17 successive records from above:
SMILES	AID504770	Ba CapD inh
COc1ccc(-c2coc3c(C)c4oc(=O)c5c(c4cc23)CCCC5)cc1F	1.9	-1.4
CN(CCN1CCOCC1)C1CCN(C(=O)CNC(=O)/C=C/c2cccc(C(F)(F)F)c2)CC1	-0.25	-0.35
O=C(c1cccc2ccccc12)c1nc2c(n1O)CCCC2	-0.7	-3.5
COc1ccc(C(C#N)OC(C)=O)c(OCc2ccccc2)c1OC (stereo not given)	-0.2	0.27
COc1cccc(OCC(=O)NCC(C)C)c1	0.4	0.12
Cc1ccccc1CN1CCC(CN)CC1	-0.25	0.16
CCn1c(=O)cc(SCC(=O)NCCCN2CCCC2)c2ccccc21	0.1	0.64
COc1ccc(C2=NN(C(=O)CCC(=O)O)C(Cc3cc4cccc(C)c4nc3Cl)C2)cc1 (stereo not given)	.	0.54
CCCSc1nc2ccccc2n1CC(=O)N1CCN(Cc2ccccc2)CC1	-0.3	.
CCCCCCCOC(=O)c1ccc(-c2ccc(-c3ccc(C(=O)OCCCCCCC)cc3)cc2)cc1	.	-0.12
CCOC(=O)c1cnc(SC)nc1Sc1ccc(Br)cc1	.	0.59
CCOC(=O)c1sc2ncn(CC(=O)Nc3ccc(C)cc3)c(=O)c2c1C	.	2.9
N#CCSc1nc2cc(C(=O)NC3CCCCC3)ccc2c(=O)n1Cc1ccccc1	-0.4	0.8
COc1cc(OC)cc(-n2c(=O)c3ccccc3n(Cc3cc(=O)n4ccccc4n3)c2=O)c1	0.8	0.075
CC1=C(C(=O)OCc2ccccc2)C(c2ccc3c(c2)OCO3)C2=C(CC(c3ccccc3)CC2=O)N1 (stereo not given)	.	4.9
COCCOc1cc(-n2nnnc2-c2cccc(OC)c2)c(Cl)cc1Cl	.	-0.13
O=C(c1ccc2ncccc2c1)N1CCN(c2ccccc2)CC1	-0.3	-0.25
